DUX4 txn inh – DUX4-mediated transcription inhibition; activity change, negative = inhibition, % (test concentration not listed); AID 1224904; 293T-iDUX4 ZSCAN4-Gaussia luciferase reporter, 24 h; stronger effect = lower value; 37,000 compounds, 0.8% hits;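 active = -10% or lower and over 25 points stronger than a control reporter; inconclusive = -10% or lower with a smaller gap; inactive = above -10%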;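 note: 0% = median of neutral control wells and -100% = median of positive control wells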
DUX4 txn inh difference – recorded beside DUX4 txn inh, whose call it bears; Gaussia minus Italica difference, %; measured here: selective DUX4 reporter inhibition;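 worked out from the two reporters; negative = selective loss of the DUX4 reporter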
DUX4 txn inh control – second read-out of DUX4 txn inh, no call of its own (marks repeat the call); activity change, negative = inhibition, %; measured here: Italica tet-on control reporter;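 0 = neutral control and -100 = positive control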
Starred values were filed as active, the others as inactive; ? = inconclusive; / = not tested or not shown; ! = not active in a repeat. This is a subset; the hit share may differ from the screen's.

cpd | Structure | DUX4 txn inh | DUX4 txn inh control | DUX4 txn inh difference
1 | O=C(NC1CCCC1)N1CC(=O)N2[C@H](CO)[C@H](c3ccc(/C=C/c4ccccc4)cc3)[C@@H]2C1 | -4.4 | -6.5 | 2.1
2 | O=C(Nc1ccc(F)cc1)N1CCCCN2[C@H](CO)[C@H](c3ccc(C#Cc4ccccc4)cc3)[C@H]2C1 | ? | / | /
3 | C[C@H]1CN([C@@H](C)CO)C(=O)c2cccc(NS(=O)(=O)c3ccc(F)cc3)c2O[C@H]1CN(C)C(=O)NC1CCCCC1 | -0.3 | 3.6 | -3.9
4 | CCCC(=O)Nc1ccc2c(c1)OC[C@H](C)N(CC1CCOCC1)C[C@H](C)[C@@H](OC)CN(C)C2=O | 0.7 | 7.2 | -6.5
5 | COc1cccc(NC(=O)N[C@@H]2C=C[C@@H](CC(=O)NCc3ccncn3)O[C@@H]2CO)c1 | -2.5 | 10.2 | -12.6
6 | O=C(CC1CC1)Nc1ccc2c(c1)[C@H]1C[C@H](CC(=O)NC3CCCCC3)O[C@H](CO)[C@H]1O2 | -5.3 | -2.3 | -3.0
7 | COc1ccccc1NC(=O)N[C@@H]1C=C[C@H](CC(=O)N[C@H](C)c2ccccc2)O[C@@H]1CO | 10.9 | -3.2 | 14.1
8 | CCC(=O)N1C[C@@H](O)COC[C@H]2O[C@@H](CC(=O)N3CCCCC3)CC[C@@H]21 | 9.8 | 3.6 | 6.2
9 | COCC(=O)N1CCCCN2[C@H](C1)[C@@H](c1ccc(C#Cc3cccnc3)cc1)[C@@H]2CO | 16.3 | 7.7 | 8.6
10 | O=C(CC1CC1)N1CC[C@H]2[C@H](CO)Nc3ccc(-c4cccc(F)c4)cc3[C@H]21 | 7.4 | -8.7 | 16.0
11 | CC(C)CC#Cc1ccc([C@H]2[C@@H](CO)N3CCCCN(S(=O)(=O)Cc4ccccc4)C[C@H]23)cc1 | -14.2* | 15.3* | -29.5*
12 | C[C@@H]1CN([C@H](C)CO)C(=O)c2cc(-c3cccnc3)cnc2O[C@H]1CN(C)C(=O)C1CCCCC1 | 1.4 | 3.9 | -2.6
13 | CN(C)C(=O)c1cccc(-c2ccc3n(c2=O)C[C@H]2N[C@@H]3[C@@H](C(=O)NC3CCC3)[C@@H]2CO)c1 | 4.3 | 4.1 | 0.2
14 | CO[C@@H](CN(C)C(=O)c1cnccn1)[C@@H](C)CN([C@@H](C)CO)S(=O)(=O)c1ccc(C)cc1 | -6.4 | 8.2 | -14.7
15 | CCN1[C@@H]2c3ccc(-c4cccc(F)c4)c(=O)n3C[C@H]1[C@H](CO)[C@H]2C(=O)NCCCN(C)C | -0.4 | -2.1 | 1.7
16 | O=C(C[C@@H]1CC[C@@H]2[C@H](COC[C@@H](O)CN2CC2CCOCC2)O1)N1CCOCC1 | 2.4 | -0.9 | 3.3
17 | Cc1ccc(S(=O)(=O)N(C)C[C@H]2OCc3ccccc3-c3ccccc3C(=O)N([C@H](C)CO)C[C@H]2C)cc1 | 17.4 | -1.8 | 19.2
18 | COc1ccc(S(=O)(=O)Nc2cccc3c2O[C@H](CN(C)C(=O)Nc2cccc4ccccc24)[C@@H](C)CN([C@@H](C)CO)C3=O)cc1 | 3.5 | 5.4 | -1.9
19 | COc1ccc2c3c([nH]c2c1)[C@@H](CO)N(S(=O)(=O)c1cn(C)cn1)CC31CCN(Cc2ccccc2)CC1 | ? | / | /
20 | CN(C)CC(=O)N1[C@H](CO)[C@@H](c2ccccc2)C12CN(Cc1cc(F)ccc1F)C2 | -4.1 | 1.6 | -5.8
21 | CC(C)[C@@H]1CC=CC[C@@H](C)Oc2ccccc2C(=O)N(C)[C@H](C)C(=O)N1 (mixture of isomers) | -2.9 | -0.1 | -2.7
22 | COC(=O)C[C@@H]1CC[C@H]2[C@H](COc3ccc(NC(=O)NC(C)C)cc3C(=O)N2C)O1 | 1.2 | -3.8 | 5.0
23 | CCC(=O)N1[C@H](CN(C(C)C)S(C)(=O)=O)[C@@H](c2ccccc2)[C@@H]1CO | -5.6 | -0.7 | -4.9
24 | C[C@@H](O)C#Cc1ccc([C@@H]2[C@H]3CN(C(=O)c4ccncc4)CCCCN3[C@H]2CO)cc1 | 16.3 | 23.9 | -7.6
25 | COc1cccc(-c2ccc3c(c2)O[C@@H](CN(C)C(=O)C2CCOCC2)[C@H](C)CN([C@@H](C)CO)S3(=O)=O)c1 | 0.8 | 2.4 | -1.6
26 | C[C@@H]1CN([C@@H](C)CO)C(=O)c2cc(C#Cc3cccc(F)c3)cnc2O[C@H]1CN(C)CC1CCCC1 | 0.1 | -0.1 | 0.3
27 | COc1cccc(-c2ccc3n(c2=O)C[C@H]2[C@H](CO)[C@@H](C(=O)NC4CCC4)N[C@@H]32)c1 | -1.2 | -7.6 | 6.4
28 | C[C@@H]1CN([C@H](C)CO)S(=O)(=O)c2ccc(-c3ccncc3)cc2O[C@@H]1CN(C)C(=O)Nc1ccc(F)cc1 | 0.7 | 3.5 | -2.7
29 | CO[C@H]1CN(C)C(=O)c2ccc(NC(=O)c3cccc(Oc4ccccc4)c3)cc2OC[C@@H](C)NC[C@H]1C | 0.0 | -19.6 | 19.6
30 | CCc1csc(N2[C@H](C#N)[C@H](c3ccc(C4=CCCC4)cc3)[C@@H]2CO)n1 | -1.7 | 0.9 | -2.6
31 | COc1ccccc1S(=O)(=O)N[C@@H]1C=C[C@H](CC(=O)NCc2cccc(F)c2)O[C@H]1CO | 2.6 | 1.4 | 1.2
32 | COc1ccc(NC(=O)N2CCCCN3[C@H](CO)[C@@H](c4ccc(-c5ccccc5F)cc4)[C@H]3C2)cc1 | 0.6 | 7.1 | -6.5
33 | O=C(C[C@@H]1CC[C@@H]2[C@H](COC[C@H](O)CN2C(=O)Nc2ccccc2)O1)NCCCN1CCOCC1 | 11.0 | 5.1 | 5.9
34 | CN1[C@@H]2c3cccc(=O)n3C[C@@H]2[C@@H](CO)[C@@H]1C(=O)NCCc1ccccc1 | -2.2 | -5.0 | 2.8
35 | C/C=C/c1ccc([C@@H]2[C@H](CO)N(CCC(F)(F)F)C23CN(C(=O)CN(C)C)C3)cc1 | 11.7 | 7.5 | 4.2
36 | C[C@@H]1CN([C@H](C)CO)C(=O)c2cc(C#CC3(O)CCCC3)cnc2O[C@H]1CN(C)C(=O)Cc1ccncc1 | -2.6 | -0.2 | -2.4
37 | CCC(=O)N1CC2(C1)[C@H](c1ccc(-c3ccc(F)cc3)cc1)[C@@H](CO)N2C(=O)CC | 0.0 | 4.2 | -4.3
38 | C[C@@H]1CN([C@@H](C)CO)C(=O)c2cc(NS(=O)(=O)c3ccccc3)ccc2O[C@@H]1CN(C)Cc1ccc(Cl)c(Cl)c1 | -4.6 | -3.7 | -0.9
39 | COCC(=O)Nc1ccc2c(c1)C(=O)N(C)C[C@@H](OC)[C@@H](C)CN(CC1CCCCC1)[C@H](C)CO2 | 3.4 | 4.5 | -1.1
40 | O=C(CC1CC1)Nc1ccc2c(c1)[C@@H]1C[C@H](CC(=O)N3CCCCC3)O[C@@H](CO)[C@@H]1O2 | 0.1 | 4.2 | -4.1
41 | CCCNC(=O)C[C@H]1CC[C@@H]2[C@@H](COc3ccc(NC(=O)c4ccc(Cl)cc4)cc3C(=O)N2C)O1 | 1.0 | -1.4 | 2.4
42 | CN1CCN(C(=O)[C@H]2[C@H](CO)[C@H]3Cn4c(ccc(-c5cncnc5)c4=O)[C@H]3N2CC2CC2)CC1 | 2.4 | 3.0 | -0.7
43 | CS(=O)(=O)N1[C@H](C#N)[C@H](c2ccc(C#CC3CCCC3)cc2)[C@H]1CO | 2.6 | 5.8 | -3.3
44 | C[C@@H]1CN([C@@H](C)CO)C(=O)c2cc(Br)cnc2O[C@@H]1CN(C)Cc1ccc(Oc2ccccc2)cc1 | -3.8 | 0.5 | -4.3
45 | CCCNC(=O)C[C@H]1CC[C@@H]2[C@@H](COc3ccc(NC(=O)Nc4ccccc4F)cc3C(=O)N2C)O1 | -2.6 | 4.3 | -6.9
46 | CCCNC(=O)[C@@H]1[C@@H](CO)[C@@H]2Cn3c(ccc(-c4cccc(C(=O)N(C)C)c4)c3=O)[C@H]1N2 | 7.0 | -1.0 | 8.1
47 | CO[C@H]1CN(C)C(=O)c2cc(NS(=O)(=O)c3ccc(F)cc3)ccc2OC[C@H](C)NC[C@H]1C | -1.8 | 1.8 | -3.7
48 | CO[C@@H]1CN(C)C(=O)c2cc(NC(C)=O)ccc2OC[C@@H](C)N(C(=O)Cc2ccccn2)C[C@H]1C | 9.3 | 1.3 | 8.0
49 | C[C@@H]1CCCCO[C@H](CN(C)Cc2ccc(C(F)(F)F)cc2)[C@@H](C)CN([C@H](C)CO)C(=O)c2cc(NC(=O)CCCN(C)C)ccc2O1 | -0.1 | -8.7 | 8.6
50 | CCC(=O)N1[C@H](C(=O)NCC2CC2)[C@@H](CO)[C@@H]2Cn3c(cccc3=O)[C@@H]21 | 5.0 | 2.0 | 3.0
51 | CCC(=O)N1CC(=O)N2[C@H](C1)[C@H](c1ccc(C#CC(C)C)cc1)[C@@H]2CO | 3.1 | 5.9 | -2.9
52 | COc1ccc2c3c(n(C)c2c1)[C@H](CO)N(C(=O)Cc1ccccn1)CC31CCN(CC2CCOCC2)CC1 | 9.2 | -0.6 | 9.8
53 | COc1cccc(CN2CC3(CN(Cc4ccccn4)C3)c3c([nH]c4cc(OC)ccc34)[C@@H]2CO)c1 | -9.2 | -7.3 | -1.9
54 | CO[C@@H]1CN(C)C(=O)c2cc(NS(=O)(=O)c3ccc(F)cc3)ccc2OC[C@@H](C)NC[C@@H]1C | 4.6 | 4.3 | 0.4
55 | O=C(Nc1ccccc1)[C@@H]1[C@@H](CO)[C@@H]2Cn3c(cccc3=O)[C@@H]2N1C(=O)C1CCCC1 | -6.9 | -2.4 | -4.5
56 | Cc1noc(C)c1NC(=O)N(C)C[C@H]1Oc2c(NC(=O)c3cnccn3)cccc2C(=O)N([C@H](C)CO)C[C@H]1C | -1.3 | -2.3 | 1.0

Going on with the list:
cpd | Structure | DUX4 txn inh | DUX4 txn inh control | DUX4 txn inh difference
57 | COc1ccc(CN2CC3(CCN(C(=O)Cc4ccncc4)CC3)c3c([nH]c4cc(OC)ccc34)[C@@H]2CO)cc1 | ? | / | /
58 | CO[C@H]1CC[C@@H]2CCN(C)C(=O)[C@@H](C)N(C)C(=O)c3cccc(C#N)c3OC[C@H]1O2 | -3.2 | -2.8 | -0.5
59 | CCCC#Cc1ccc([C@H]2[C@H]3CN(Cc4cccnc4)CCCCN3[C@H]2CO)cc1 | 4.9 | 9.7 | -4.8
60 | C[C@@H]1CN([C@@H](C)CO)C(=O)CCCn2nncc2CO[C@@H]1CN(C)C(=O)Nc1cccc(Oc2ccccn2)c1 | 2.2 | -3.4 | 5.6
61 | O=C(NCC[C@H]1CC[C@H](NC(=O)c2ccc3c(c2)OCO3)[C@H](CO)O1)Nc1cc(F)ccc1F | -4.4 | -7.4 | 3.0
62 | COc1ccc(NC(=O)N(C)C[C@@H]2Oc3ncc(C#C[C@@H](C)O)cc3C(=O)N([C@@H](C)CO)C[C@@H]2C)cc1 | -1.7 | 3.2 | -4.8
63 | COc1cccc(-c2ccc3c(c2)[C@H]2[C@H](CCN2C(=O)C2CCCCC2)[C@@H](CO)N3)c1 | 1.9 | -20.3 | 22.2
64 | C[C@@H](NC(=O)C[C@H]1C=C[C@H](NS(=O)(=O)c2cccc(F)c2)[C@H](CO)O1)c1ccccc1 | 0.5 | 1.6 | -1.1
65 | C[C@H]1CN([C@@H](C)CO)C(=O)c2ccccc2-c2ccccc2CO[C@H]1CN(C)S(=O)(=O)c1ccc([N+](=O)[O-])cc1 | ? | / | /
66 | C[C@@H]1CN([C@H](C)CO)C(=O)CCCn2nncc2CO[C@H]1CN(C)S(=O)(=O)c1cn(C)cn1 | -0.1 | -4.1 | 3.9
67 | CO[C@@H](CN(C)C(=O)c1cnccn1)[C@@H](C)CN([C@H](C)CO)S(=O)(=O)c1ccc(C)cc1 | -7.1 | -6.4 | -0.6
68 | CS(=O)(=O)N1[C@@H]2c3ccc(-c4ccccc4)c(=O)n3C[C@@H]2[C@@H](CO)[C@@H]1C(=O)NC1CCC1 | 2.5 | 0.4 | 2.1
69 | OC[C@H]1[C@@H](c2ccccc2)C2(CN(Cc3nccs3)C2)N1CCC(F)(F)F | ? | / | /
70 | O=C(NCc1ccc(F)cc1)[C@H]1[C@H](CO)[C@H]2Cn3c(cccc3=O)[C@H]2N1CCC(F)(F)F | 1.7 | -5.3 | 7.0
71 | COc1ccc(CN2C[C@@H](O)COC[C@@H]3O[C@H](CC(=O)N4CCc5ccccc5C4)CC[C@H]32)cc1 | ? | / | /
72 | O=S(=O)(c1ccccc1)N1[C@@H]2CNC[C@H]1C2c1ccc(-c2cccnc2)cc1 (stereo partly specified) | -11.5*! | 17.7*! | -29.1*!
73 | O=C(C[C@H]1CC[C@@H]2[C@H](COC[C@H](O)CN2C(=O)Nc2ccccc2)O1)NC1Cc2ccccc2C1 | 6.3 | 0.2 | 6.2
74 | O=C(NCCN1CCCC1)[C@H]1N[C@H]2c3ccc(-c4ccccc4)c(=O)n3C[C@H]2[C@@H]1CO | -7.1 | 0.7 | -7.8
75 | C[C@@H]1CN([C@H](C)CO)C(=O)c2cc(C#CC3(O)CCCC3)cnc2O[C@H]1CN(C)S(=O)(=O)c1cccc(F)c1 | 0.1 | 0.8 | -0.6
76 | N#C[C@H]1[C@@H](c2ccc(C#CC3(O)CCCC3)cc2)[C@@H](CO)N1C(=O)C1CCCCC1 | -8.1 | -11.5 | 3.3
77 | CCC(=O)N1[C@H](CO)[C@@H](c2ccccc2)C12CN(C(=O)Nc1cccc(OC)c1)C2 | 2.8 | 1.4 | 1.4
78 | CN(C)C(=O)C[C@@H]1CC[C@@H]2[C@H](COc3ccc(NS(=O)(=O)c4cccc(F)c4)cc3C(=O)N2C)O1 | -1.4 | -0.4 | -1.0
